# Mtb H37Rv = Mycobacterium tuberculosis H37Rv growth inhibition, cell based, confirmatory dose response (AID 1949). most inactive calls were filed without a number and no value below 0 was filed. one-dose inhibition, % at 10 µg/mL; IC50 in µg/mL for titrated hits. 100,000 tested, 1.6% active;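 active = confirmed in a dose series; inconclusive = about 50% or more but not retested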;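 note: bacteria grown 7 days with compound before Alamar blue readout; 0% = untreated bacteria and 100% = reference antibiotic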
# The depositor's hits bear a star; i = inactive; ? = inconclusive. This is a subset, so the mix of outcomes need not match the whole.
item	structure	Mtb H37Rv
1	CNCCCOc1ccc(C)cc1Br	i
2	CCN1CCCC1CNC(=O)C(=O)Nc1ccc2c(c1)OCO2 (stereo not drawn)	i
3	CC(=O)NC(=S)NNC(=O)c1ccc(-c2ccccc2)cc1	<0.1µg/mL*
4	CC(NC(=O)CSc1nc(-c2cccs2)cc(C(F)(F)F)c1C#N)c1ccccc1 (stereo not drawn)	0%
5	COC(=O)c1cc(Nc2ncnc(N)c2[N+](=O)[O-])cc(C(=O)OC)c1	i
6	COCCNS(=O)(=O)c1ccc2ccccc2c1	i
7	C=CCn1c(CNC(=O)c2ccc(Cl)cc2)nnc1SCC(=O)Nc1c(C)cccc1CC	1%
8	Cc1cc(=O)[nH]c(SCCOc2ccc3c(c2)CCC3)n1	1%
9	Nc1nncn1C(=O)c1ccc2c(c1)OCO2	i
10	CCOC(=O)CSc1nc2c(c(=O)n1-c1ccccc1)C(C)(CC)Cc1ccccc1-2 (stereo not drawn)	i
11	CCOCCCNC(=O)Nc1ccc(C)cc1	i
12	Oc1ccc(C(=S)N2CCN(c3ccc(F)cc3)CC2)cc1	i
13	COC(=O)C1=CN(c2ccc(Cl)cc2)C=C(C(=O)OC)C1c1ccc(C)c([N+](=O)[O-])c1	i
14	Cc1cc(N2C(=O)CCC2=O)ccc1NC(=O)c1cccs1	i
15	CC(=O)Nc1nnc(SCC(=O)c2ccc(F)cc2)s1	i
16	CCc1c(O)nc(N2CCCCC2)[nH]c1=O	i
17	CCc1ccc(N(CC(=O)Nc2ccccc2-c2ccccc2)S(C)(=O)=O)cc1	3%
18	Cc1cc(C)cc(NC(=O)Cn2c(C)c(C=O)c3ccccc32)c1	i
19	O=C(Nc1cccc([N+](=O)[O-])c1)C1CCN(C(=O)Cc2ccccc2)CC1	i
20	CCC(=O)Nc1cc(-c2nc3cc(C(C)C)ccc3o2)ccc1OC	i
21	CC(=O)Oc1ccc(/C=C/c2ccc3ccccc3n2)cc1Cl	i
22	COC(=O)c1cc(OC)c(OC)cc1NC(=O)c1sc2nc3c(cc2c1N)CN(C)CC3	2%
23	Cc1cccc(CSc2nc3ccccn3n2)c1	2%
24	CCCCNCCOc1ccc(C)cc1[N+](=O)[O-]	i
25	Cc1cccc(OCCOCCNCCN)c1C	i
26	CCC(=O)Nc1nonc1-c1nc2ccccc2n1Cc1ccc(Br)cc1	i
27	CCOc1cc(Br)ccc1S(=O)(=O)NCc1ccccc1	i
28	COc1ccc(Nc2nc(N)nc(CSc3nc(C)cc(C)n3)n2)cc1	i
29	O=C(CCC1CCCC1)N1CCN(S(=O)(=O)c2ccc3ccccc3c2)CC1	i
30	COc1cc(C(=O)NC(=S)Nc2cc(C(=O)O)ccc2C)cc(OC)c1OC	3%
31	CCN1C(=O)C(O)(c2c[nH]c3ccccc23)c2cc(Cl)ccc21 (stereo not drawn)	i
32	O=C(Nc1ccon1)c1ccccc1Br	i
33	O=C(CCc1ccccc1)Nc1ccccc1C(=O)Nc1ccc(C(=O)O)cc1	i
34	CCCC(=O)NC(=S)Nc1ccc(N2CCN(C(=O)c3cccs3)CC2)c(Cl)c1	0.61µg/mL*
35	CC1CCCCN1C(=O)c1c(F)c(F)c(F)c(F)c1F (stereo not drawn)	i
36	Cc1cc(C23CC4CC(CC(C4)C2)C3)ccc1NC(=O)c1cccs1	i
37	Cc1cccc2c1CC(C)(C)N/C2=C\C(N)=O	i
38	O=C(Cc1ccccc1)Nc1cccc2c(NC(=O)Cc3ccccc3)cccc12	5%
39	CCCn1c(SCC(=O)Nc2cccc(OC)c2)nnc1-c1ccccc1	i
40	O=C(C1CCNCC1)N1CCN(c2ccccc2F)CC1	i
41	COc1ccc(CCC(=O)NNC(=O)Nc2ccc(C(C)=O)cc2)cc1	i
42	Cc1ccc(SCCNC(=O)c2ccccc2NS(C)(=O)=O)cc1	i
43	Cc1cc(SCC(=O)N2CCCCC2)nc2c(C)cccc12	i
44	CC(C)n1[nH]c(=O)c2c1NC(=O)CSC2c1ccc([N+](=O)[O-])cc1 (stereo not drawn)	i
45	CC(C)(C)c1cc(C(=O)Nc2nccs2)ccn1	?
46	CCCC(=O)Nc1ccc(Cl)c(NC(=O)COc2ccc3ccccc3c2)c1	i
47	CCNC(=O)COc1ccc(CC)cc1Br	i
48	CCC(Cc1ccccc1)NC(=O)CCc1ccccc1 (stereo not drawn)	i
49	O=C(Nc1ccc(OCC(F)(F)C(F)F)c(C(F)(F)F)c1)c1ccc(Br)cc1	10%
50	O=C(O)c1ccccc1-c1ccccc1C(=O)NCCCO	i
51	O=C(CN(Cc1ccc(Cl)cc1Cl)S(=O)(=O)c1ccccc1)Nc1cccc([N+](=O)[O-])c1	1%
52	Cc1scc(C(=O)Nn2cnnc2)c1-c1ccccc1	i
53	COC(=O)Cc1ccc(NC(=S)NCC2CCCO2)cc1 (stereo not drawn)	i
54	OC(CC#CCN1CCCCC1)(c1ccccc1)c1ccccc1	i
55	Cc1ccc(S(=O)(=O)NC(C)C(=O)Nc2c(F)cccc2F)cc1 (stereo not drawn)	i
56	CS(=O)(=O)Nc1ccccc1C(=O)NCCc1ccccc1	i
57	Cn1nc(C(=O)NC2CCCCC2)c2ccccc2c1=O	3%
58	COC(=O)c1nn(-c2ccc(C)c(C)c2)cc1O	i
59	Cn1c(C23CC4CC(CC(C4)C2)C3)n[nH]c1=S	i
60	Cc1ccc(N2C(=O)CC(N3CCC(C(N)=O)CC3)C2=O)cc1C (stereo not drawn)	i

# Further structures.
item	structure	Mtb H37Rv
61	O=C(O)c1ccc(Cl)c(NC(=S)NC(=O)c2cccc(COc3ccccc3)c2)c1	i
62	O=S(=O)(c1ccc(NC(=S)Nc2ccc(Br)cc2Cl)cc1)N1CCCC1	i
63	O=C(O)C1CC(O)CN1S(=O)(=O)c1ccc(Cl)cc1 (stereo not drawn)	i
64	CCOC(=O)CNC(=S)Nc1ccc(F)cc1	i
65	O=C(Nc1ccc(S(=O)(=O)Nc2ccccc2)cc1)C1CCCCC1	14%
66	O=C(O)CCC(=O)N(c1ccccc1)c1ccccc1	i
67	Cc1cc(C)c(C)c(-c2csc(CC(=O)Nc3ccccc3)n2)c1	i
68	CCC(CC)c1nnc(NC(=O)c2ccccc2Oc2ccccc2)s1	i
69	CCC(C)NCCCOc1cc(C)ccc1C (stereo not drawn)	2%
70	COc1ccccc1NC(=O)N1c2ccc(F)cc2CCC1C (stereo not drawn)	6%
71	Cc1nc2ccc(NC(=S)N3CCN(c4ccccn4)CC3)cc2nc1C	i
72	Cc1c(Cl)cccc1NC(=O)CS(=O)(=O)c1ccccc1	i
73	COc1ccc(N(CC(=O)Nc2cccc(SC)c2)S(C)(=O)=O)c(OC)c1	i
74	CCOc1ccc(C(C)C)cc1S(=O)(=O)n1nc(C)cc1C	i
75	CCCC(=O)Nc1ccccc1NC(=O)c1ccc(C)cc1	i
76	O=C(O)c1ccc(S(=O)(=O)c2ccc3c(c2)C(=O)N(Cc2ccc(Cl)cc2)C3=O)cc1	34%
77	COc1ccc(C(=O)COc2ccc(Br)cc2)cc1	10%
78	CCSc1ccccc1C(=O)N(CC)c1ccccc1	0%
79	O=C(NC(Nc1ccc([N+](=O)[O-])cc1)C(Cl)(Cl)Cl)c1cccc(I)c1 (stereo not drawn)	7.1µg/mL*
80	Cc1cc(Cl)ccc1OCCNS(C)(=O)=O	i
81	Cc1cc(NC(=O)CSc2nnc(-c3ccccc3)n2-c2ccc(F)cc2)ccc1Br	i
82	COc1cccc(Nc2ncccc2[N+](=O)[O-])c1	i
83	COc1ccc2oc(-c3ccc(NC(=O)c4ccco4)cc3)nc2c1	i
84	COc1cccc(C(=O)N2CCC(N3CCN(C)CC3)CC2)c1	i
85	COC(=O)c1sc(NC(=O)CCC(=O)O)nc1C	i
86	O=C(CN(C1CCCCC1)S(=O)(=O)c1ccc(Cl)cc1)NCc1ccccc1Cl	1%
87	OCCNCc1ccccc1OCc1ccc(F)cc1	4%
88	COc1cc(C(=O)Nc2nnc(C3CCCCC3)s2)cc(OC)c1OC	6%
89	CC(NC(=O)COc1ccc(Br)cc1Cl)c1ccncc1 (stereo not drawn)	i
90	CCc1ccc(NC(=O)CNS(=O)(=O)c2ccc(Cl)cc2)cc1	1%
91	COc1ccc(NC(=O)c2ccc(NC(=O)c3ccccc3Cl)cc2)cc1	i
92	COc1ccc([N+](=O)[O-])cc1NC(=O)c1c(F)c(F)c(F)c(F)c1F	?
93	CN(C1CCCCC1)S(=O)(=O)c1ccc(Br)cc1	i
94	O=C(Nc1ccc(S(=O)(=O)Nc2ccccn2)cc1)c1cc2ccccc2oc1=O	i
95	CCOC(=O)COc1ccc(S(=O)(=O)Nc2ccc(I)cc2)cc1	i
96	O=S1(=O)N=C(Oc2ccccc2-c2ccccc2)c2ccccc21	i
97	Cc1cc([N+](=O)[O-])ccc1N/C(=N/S(=O)(=O)c1ccccc1)C(F)(F)F	i
98	CCC(CC)C(=O)Nc1ccc(S(=O)(=O)N2CCCC2)cc1	i
99	Nc1ccccc1N1CCN(C(=O)c2ccc(Cl)cc2)CC1	i
100	CCCOc1ccc(N2CC(C(=O)Nc3ccc(Cl)cc3)CC2=O)cc1 (stereo not drawn)	i
101	COC(=O)c1sccc1NC(=O)c1c(Cl)cccc1Cl	i
102	Cn1nc([N+](=O)[O-])nc1Sc1cccc2ccccc12	3%
103	COc1ccc(Cl)cc1C(=O)Nc1nnc(Cc2ccc(Cl)cc2)s1	2%
104	O=C(COc1ccc2c(-c3ccccc3)cc(=O)oc2c1)c1ccc(Br)cc1	i
105	CCc1ccc(NC(=O)CCSc2ccc(Cl)cc2)cc1	i
106	CCOc1ccc(S(=O)(=O)Nc2ccc(S(=O)(=O)N3CCCCC3)cc2)cc1	i
107	Cc1ccc(N(C(=O)COc2ccc(F)cc2)C2C=CS(=O)(=O)C2)cc1 (stereo not drawn)	i
108	C=CCNC(=O)c1c(NC(=O)C2COc3ccccc3O2)sc2c1CCCC2 (stereo not drawn)	i
109	O=C1c2cccc3cccc(c23)C(=O)N1CCc1cnc[nH]1	1%
110	CCN1CCN(C(=O)CN(c2ccc(C)c(C)c2)S(=O)(=O)c2ccc(C)cc2)CC1	i
111	CN(C(=O)CSc1nc(-c2ccc(F)cc2)cs1)c1ccccc1	7%
112	C/C(=N\N1CCN(Cc2cccc3ccccc23)CC1)c1ccccc1O	i
113	CCCCC(=O)Nc1ccc(Oc2ccc(NC(=O)CCCC)cc2)cc1	3%
114	COCC(=O)Nc1ccc(S(=O)(=O)NCCc2ccccc2)cc1	10%
115	COc1cccc(N(CC(=O)Nc2ccccc2C(=O)NC(C)C)S(C)(=O)=O)c1	i
116	Oc1ccc(F)cc1C1=NNC(c2ccccc2Cl)C1 (stereo not drawn)	10%
117	CC12CCC(C(=O)N(c3ccc(OC(F)(F)F)cc3)C1=O)C2(C)C (stereo not drawn)	i
118	CCOC(=O)c1c(NC(=O)Cn2cnc3ccccc3c2=O)sc2c1CCN(C)C2	i
119	CC1CCC(N2CCN(C(=O)COc3ccccc3)CC2)CC1 (stereo not drawn)	i
120	C=CCn1c(SCC(=O)OCC)nc2sc(C)c(C)c2c1=O	i

# Taken from above:
# Cn1nc([N+](=O)[O-])nc1Sc1cccc2ccccc12 in Mtb H37Rv → 3%
# COc1ccc(Cl)cc1C(=O)Nc1nnc(Cc2ccc(Cl)cc2)s1 in Mtb H37Rv → 2%
# O=C1c2cccc3cccc(c23)C(=O)N1CCc1cnc[nH]1 in Mtb H37Rv → 1%

# Reformatted: 3 of the compounds above
[117] CC12CCC(C(=O)N(c3ccc(OC(F)(F)F)cc3)C1=O)C2(C)C (stereo not drawn)
  Mtb H37Rv: i
[118] CCOC(=O)c1c(NC(=O)Cn2cnc3ccccc3c2=O)sc2c1CCN(C)C2
  Mtb H37Rv: i
[119] CC1CCC(N2CCN(C(=O)COc3ccccc3)CC2)CC1 (stereo not drawn)
  Mtb H37Rv: i

# Going on with the list:
item	structure	Mtb H37Rv
121	Cc1cc(C)cc(NC(=S)N2CCN(c3ccccc3)CC2)c1	i
122	Cc1ccc(C)c(-c2csc(NC(=O)c3c(F)c(F)c(F)c(F)c3F)c2C#N)c1	?
123	CC1(C(=O)N2CCN(CCc3ccccc3)CC2)CC1(Cl)Cl (stereo not drawn)	i
124	CCOC(=O)c1c(NC(=S)NC(=O)c2ccccc2I)sc(C)c1C	i
125	O=C(O)CCNc1c(C(=O)O)cnc2ccccc12	i
126	CCOC(=O)C(C)Oc1cc(Cl)c(C2NC(=O)NC(C)=C2C(C)=O)cc1OC (stereo not drawn)	i
127	COc1ccc(OC)c(N(CC(=O)Nc2ccc(F)c(Cl)c2)S(=O)(=O)c2ccccc2)c1	i
128	O=C1CC(NCC2CCCCC2)C(=O)N1c1ccc(I)cc1 (stereo not drawn)	i
129	COc1ccc(NC(=S)N2CCCc3cc(C)ccc32)cc1OC	i
130	CC1CC(C)CN(S(=O)(=O)c2c(Cl)cccc2Cl)C1 (stereo not drawn)	1%
131	NC(=O)CSc1ncnc2scc(-c3ccc(Cl)cc3)c12	1%
132	CC(C)(C)N1C(=O)C2C3C=CC(C2C1=O)C1C(=O)N(C(C)(C)C)C(=O)C31 (stereo not drawn)	i
133	CCOC(=O)c1c(C)n(CCCc2ccccc2)c2ccc(O)cc12	i
134	CC(C)CC(C(=O)N1CCOCC1)N1C(=O)c2cc(Cl)c(Cl)cc2C1=O (stereo not drawn)	i
135	CCNC(=O)c1ccc2c(c1)C1C3CCC(C3)C1C(c1ccccc1)N2 (stereo not drawn)	26%
136	CCOC(=O)c1c(NC(C)=O)sc(C)c1-c1ccc(OC)c(OC)c1	i
137	Cc1ccc(-c2nc(NC(=O)c3cccnc3)sc2-c2ccccc2)cc1C	i
138	COc1cc2c(cc1OC)CN(C(=O)CSc1nc3c(cc1C#N)CCCC3)CC2	i
139	CCN1CCN(CCOc2cc(C)ccc2C)CC1	1%
140	O=C(N1CCOCC1)N1CCN(S(=O)(=O)c2ccc(Cl)cc2)CC1	i
141	Cc1cccc(COc2ccc(C#N)cc2)c1	i

# High-throughput results as filed in PubChem.
